Source: PubChem BioAssay (Johns Hopkins Ion Channel Center)
KCNQ2 pot – potentiators of rat KCNQ2 potassium channel; B-score at 10 µM; AID 2239; hit rate 0.54% among 310,000; CHO-K1 KCNQ2, FluxOR thallium flux fluorescence; hits give high values; O88943;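 active = fluorescence ratio B-score at least 3 SD of library B-scores, with initial fluorescence B-score within 3 SD, cut at about 5.3 in these data; same plate scores as AID 2156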;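 note: B-score of peak minus minimum over baseline fluorescence ratio after K+ and Tl+ stimulus; positive B-score means potentiation of KCNQ2 with more thallium influx and brighter signal; only the inactives scoring about 0 or higher are listed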
Target sequence (O88943 whole entry, looked up): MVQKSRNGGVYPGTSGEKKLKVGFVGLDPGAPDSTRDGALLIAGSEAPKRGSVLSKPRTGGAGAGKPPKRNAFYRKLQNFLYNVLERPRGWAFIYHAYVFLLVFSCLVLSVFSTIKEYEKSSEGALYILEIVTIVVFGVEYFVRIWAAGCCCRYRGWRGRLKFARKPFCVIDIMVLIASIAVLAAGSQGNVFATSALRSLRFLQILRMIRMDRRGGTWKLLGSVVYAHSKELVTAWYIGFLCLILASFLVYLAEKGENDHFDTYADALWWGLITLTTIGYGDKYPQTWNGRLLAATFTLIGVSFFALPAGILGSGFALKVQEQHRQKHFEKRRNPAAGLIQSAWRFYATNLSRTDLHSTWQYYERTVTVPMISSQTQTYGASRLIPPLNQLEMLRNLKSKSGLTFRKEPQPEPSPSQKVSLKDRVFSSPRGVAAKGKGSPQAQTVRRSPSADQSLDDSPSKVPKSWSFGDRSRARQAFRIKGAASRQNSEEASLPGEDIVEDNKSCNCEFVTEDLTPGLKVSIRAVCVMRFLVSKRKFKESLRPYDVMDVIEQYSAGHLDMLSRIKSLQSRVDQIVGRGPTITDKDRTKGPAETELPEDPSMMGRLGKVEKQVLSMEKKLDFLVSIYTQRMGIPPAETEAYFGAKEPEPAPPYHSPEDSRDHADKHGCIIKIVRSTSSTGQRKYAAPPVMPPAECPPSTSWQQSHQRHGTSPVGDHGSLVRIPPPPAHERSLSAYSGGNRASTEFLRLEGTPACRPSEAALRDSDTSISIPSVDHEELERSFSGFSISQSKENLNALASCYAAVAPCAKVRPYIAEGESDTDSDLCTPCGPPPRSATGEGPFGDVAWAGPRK
KCNQ2 pot baseline – recorded beside KCNQ2 pot, whose call it bears; B-score; compound at 10 µM; measured here: initial fluorescence intensity artifact check;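 brightness before thallium and not channel activity; 0 = typical well and far values either way flag optical interference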
Active calls of the source: *.

molecule	KCNQ2 pot	KCNQ2 pot baseline
O=C(O)c1ccc(Cn2nnc3sc4c(c3c2=O)CCCC4)cc1	1.23	-1.54
COC(=O)c1ccc2c(=O)n(Cc3ccc4c(c3)OCO4)c(=S)[nH]c2c1	0.83	-0.05
Cc1ccc(C(=O)c2ccccc2C(=O)OCC(=O)NCC2CCCO2)cc1 (stereo not given)	1.35	-0.53
CCN(CC)CCCNCC(=O)Nc1ccc(OC)c(Cl)c1	0.46	0.16
COc1ccc2nc(NC(=O)c3sc4nc(C)cc(C)c4c3N)sc2c1	1.53	-2.17
Cc1ccc(S(=O)(=O)N2CCOCC2)cc1C(=O)Nc1cccc(S(=O)(=O)N2CCCC2)c1	0.32	1.86
Cc1nc(-c2cccc3ccccc23)ccc1C(=O)O	0.04	1.16
CC(=O)c1cccc(NC(=O)c2oc(C)nc2C)c1	0.57	-0.44
Cc1cc(C)n(CCC(=O)N=Nc2c(O)[nH]c3ccccc23)n1	1.71	-1.18
O=C(NNc1ccc(-c2csnn2)cc1)c1cc(Cl)cc(Cl)c1	0.46	1.96
O=C1c2ccccc2C(=Nc2ccccc2)C1c1cccc(Br)c1 (stereo not given)	0.52	0.17
Cc1nn(-c2ccccc2)nc1C(=O)Nc1nnc(C(F)(F)F)s1	1.92	-0.01
CSc1ncccc1C(=O)NCC(=O)Nc1ccc(F)c(F)c1	2.39	0.89
O=S(=O)(Nn1cnnc1)c1ccc(F)cc1	0.71	-0.56
CCC1CCCCN1CCCNC(=O)CCC(=O)N1CC(C)Oc2ccccc21 (stereo not given)	0.02	-1.47

2 records picked at random from the list so far, as already listed:
molecule	KCNQ2 pot	KCNQ2 pot baseline
Cc1ccc(S(=O)(=O)N2CCOCC2)cc1C(=O)Nc1cccc(S(=O)(=O)N2CCCC2)c1	0.32	1.86
CCC1CCCCN1CCCNC(=O)CCC(=O)N1CC(C)Oc2ccccc21 (stereo not given)	0.02	-1.47

(listing goes on)
molecule	KCNQ2 pot	KCNQ2 pot baseline
CC(=O)NCCC(=O)Nc1nc(-c2ccccc2Cl)cs1	0.67	0.1
CCOC(=O)c1ccccc1NC(=O)c1cccc2c1C(=O)N(C1CCN(C(=O)OCC)CC1)C2	0.81	0.27
O=C(Cn1c(=O)oc2ccccc21)Nc1nnc(N2CCCCCC2)s1	0.81	-0.4
CN(C(=O)C1CCCO1)c1nnc(-c2cnccn2)s1 (stereo not given)	0.86	-0.41
COc1ccccc1-n1c(COc2ccccc2-c2ccccc2)nnc1SCC(=O)c1c(N)n(C)c(=O)n(C)c1=O	0.24	0.67
COC(=O)[C@H](Cc1ccccc1)NC(=O)C1CCN(C(=O)[C@H](C)NS(=O)(=O)c2ccc(C)cc2)CC1	0.83	0.25
CCc1[nH]nc2c1C(C(C)C)C(C#N)=C(N)O2 (stereo not given)	0.5	-1.57
C=CCn1c(N(C)C)nc2c1c(=O)[nH]c(=O)n2C	0.67	0.04
O=C(NCCc1ccc(Cl)cc1)c1cc(S(=O)(=O)N2CCCCC2)c[nH]1	1.01	0.05
O=C(CCl)Nc1ccc(S(=O)(=O)Nc2nccs2)cc1	1.41	1.43
CCn1c(NC(=S)Nc2ccccc2)nc2ccccc21	0.06	-1.59
COCCn1c(SCC(=O)Nc2ncc(C)s2)nc2sc3c(c2c1=O)CCC3	0.28	-2.58
O=C(Cc1ccccc1)N/N=C/c1ccccn1	0.54	-0.76
CC(Sc1ccc(S(=O)(=O)N2CCOCC2)cc1[N+](=O)[O-])C(=O)O (stereo not given)	1.34	-0.21
CCn1c(=S)sc2c(=O)n(CC(=O)Nc3ccc(OC)c(Cl)c3)c(C)nc21	0.08	0.99

molecule	KCNQ2 pot	KCNQ2 pot baseline
O=C(Nc1ccc(Cl)c(S(=O)(=O)Nc2ccccc2Cl)c1)c1cccs1	0.08	-1.45
NC(=O)c1ccc(C(F)(F)F)n(Cc2cccc(Cl)c2)c1=O	1.02	-1.73
CCOC(=O)c1csc(NC(=O)c2ccc(S(=O)(=O)N(CC)CC)cc2)n1	0.4	-0.6
Cc1cc(NC(=O)CSc2nnc(COc3cccc(C)c3C)n2C)no1	0.89	-1.25
COc1ccc(NC(=O)Cc2nnc(SCC(=O)Nc3cc(C)ccc3OC)n2C)cc1	0.03	-1.66
CC1(C)C/C(=C(/C#N)C(N)=O)CCO1	0.42	-0.64
CCN(CC)S(=O)(=O)c1ccc(N2CCOCC2)c(NC(=O)c2ccc(N3CCCC3=O)cc2)c1	0.46	0.49
Cc1[nH]n(C)c(=O)c1[N+](=O)[O-]	0.78	-0.17
O=C(NCCSc1c[nH]c2ccccc12)c1c(F)cccc1F	0.25	0.49
CCN(CC(=O)Nc1c(F)cccc1F)C(=O)c1ccc(Sc2nncn2C)c([N+](=O)[O-])c1	0.9	0.16
O=C(Nc1ccccc1C(=O)O)c1cccc(NC(=O)c2ccc(Br)o2)c1	0.66	0.07
Oc1ccccc1C1N=C(c2ccccc2)NC(c2ccccc2)=N1	0.11	-0.32
CCCCNC(=O)Nc1c(C)cc(SC#N)cc1C	16.4*	2.52*
CC(C)Nc1nc(NC(C)C)nc(N(C)n2cnnc2)n1	0.55	-1.48
O=C(Cn1cnc(S(=O)(=O)N2CCCC2)c1)Nc1cccc(Br)c1	0.14	-0.02

A second format for some results above:
compound: O=C(Nc1ccccc1C(=O)O)c1cccc(NC(=O)c2ccc(Br)o2)c1
  KCNQ2 pot = 0.66
  KCNQ2 pot baseline = 0.07

compound: Oc1ccccc1C1N=C(c2ccccc2)NC(c2ccccc2)=N1
  KCNQ2 pot = 0.11
  KCNQ2 pot baseline = -0.32

compound: CCCCNC(=O)Nc1c(C)cc(SC#N)cc1C
  KCNQ2 pot = 16.4*
  KCNQ2 pot baseline = 2.52*

Other structures follow.
molecule	KCNQ2 pot	KCNQ2 pot baseline
CC(=O)c1ccc(NC(=O)c2ccn[nH]2)cc1	1.43	1.13
COc1ccc(C2=NC(C(F)(F)F)(C(F)(F)F)c3c(n(C)c(=O)n(C)c3=O)N2)cc1	0.83	-0.79
COC(CN(C)C(=O)C1CCCN(S(=O)(=O)c2ccc3c(c2)oc(=O)n3C)C1)OC (stereo not given)	1.49	0.64
COc1ccc(C(=O)Nc2ccc(O)c3ccccc23)cc1OC	0.01	2.05
CC(=O)N1N=C(c2ccc3ccccc3c2)OC12CCCC2	0.01	0.47
Cc1cc(NS(=O)(=O)c2ccc(NC(=O)COc3ccc(Cl)cc3Cl)cc2)no1	0.55	1.63
Cc1ccc(S(=O)(=O)Nc2ccc3ncccc3c2)cc1	0.34	1.38
Cc1[nH]c2ccc(OCc3ccccc3)cc2c1CCN1C(=O)OC(C)(C)C1(C)O (stereo not given)	0.45	-0.11
Cc1c(C#N)c(N)nc2c3c(sc12)NC(=O)CC3c1ccccc1 (stereo not given)	1.59	-0.12
O=C(O)C1CCCCC1C(=O)Nc1ccccc1Cl (stereo not given)	0.35	1.71
CC1(C)C[C@@H]2C[C@@](C)(CN2C(=O)c2ccccc2)C1	0.73	0.05
O=C1C2C3CCC(C3)C2C(=O)N1CNc1ccc(F)cc1 (stereo not given)	0.68	-0.04
O=C(Nc1ccc(NC(=O)c2cccs2)cn1)c1ccco1	0.35	0.01
C/C(=N/NS(=O)(=O)c1cccc([N+](=O)[O-])c1)c1ccncc1	0.03	-0.01
CC(=O)N1CCc2cc(S(=O)(=O)CCC(=O)Nc3ccc(Cl)cc3F)ccc21	0.31	1.78

molecule	KCNQ2 pot	KCNQ2 pot baseline
COc1ccccc1OCc1nc2ccccc2n1C	0.95	-0.06
COc1ccc(OC)c(CNc2ncc(-c3cccc([N+](=O)[O-])c3)n2C)c1	0.21	-0.08
C/C=C/c1ccc(OCC(=O)Nc2ccc(C(N)=O)cc2)c(OC)c1	0.42	-0.69
Cc1ccc2cccc(NC(=S)NC(=O)c3c(Br)cnn3C)c2n1	2.11	-2.22
COc1ccc(NC(=O)/C(C#N)=C\c2ccc(-c3cccc(C(=O)O)c3C)o2)cc1	1.89	-2
CCOc1ccccc1NS(=O)(=O)c1ccc2c(c1)n(C)c(=O)c(=O)n2C	0.52	0.14
COc1ccc(C(c2oc(CO)cc(=O)c2O)c2oc(CO)cc(=O)c2O)cc1	0.4	1.27
O=C(CSc1nnc(NC(=O)Cc2ccc(F)cc2)s1)NCc1ccco1	0.59	-1.26
O=C(O)c1cncc(SCc2ccccc2)n1	0.85	-0.55
COc1cc(C(=O)Nc2ccc3c(c2)CCCN3C(=O)c2ccco2)c([N+](=O)[O-])cc1OC	2.12	-0.69
COC(=O)CC/C(O)=C1/C(=N)CC(C)(C)CC1=O	0.27	1.98
O=C(NC1CCN(S(=O)(=O)c2ccc(F)cc2)CC1)c1cccc(F)c1	0.78	0.02
CNC(=O)CSc1nnc(-c2ccco2)n1-c1ccccc1	0.46	0.59
C[C@@H]1C(=O)O[C@H]2[C@H](O)[C@@]34[C@H]5C[C@@H](C(C)(C)C)[C@]36[C@@H](OC(=O)[C@@H]6O)O[C@@]4(C(=O)O5)[C@@]12O	0.02	-0.65
COC(=O)CCN(C(=O)c1cccc([N+](=O)[O-])c1)c1ccccn1	0.63	-0.16

molecule	KCNQ2 pot	KCNQ2 pot baseline
Cc1ccc(S(=O)(=O)n2ccc(=O)[nH]2)cc1	0.05	-0.56
CCOCCCNCc1c(Cl)cccc1Cl	0.11	-1.16
COc1ccc(-n2c(C)nc3cc(C(=O)NCc4ccco4)ccc32)cc1	0.39	2.01
COc1ccc(C(=O)OCCN2CCCCC2)cc1	1.25	-1.24
COc1ccc(N2CCN(c3ncnc4nc[nH]c34)CC2)cc1	0.49	0.15
CCOc1ccc(NC(=O)CSc2nnc(-c3ccco3)n2C)cc1	1.23	-2.48
O=C(Nc1cc2c(cc1Cl)OCCCO2)c1ccccc1	0.44	1.11
COc1cc(Cl)c(NS(=O)(=O)c2cc3[nH]c(=O)c(=O)[nH]c3cc2C)c(OC)c1	0.49	-0.08
O=C(CN1CCC(NC(=O)Nc2ccccc2)CC1)Nc1cccc([N+](=O)[O-])c1	1.14	0.66
Cc1nc(-c2ccccc2)c(-c2ccccc2)[nH]1	0.33	-0.05
CCN(C1CCCCC1)S(=O)(=O)c1cn(C)c(=O)n(C)c1=O	0.55	1.22
Cc1cc(C(=O)NNC(=S)NC(C)c2ccccc2)c2ccccc2n1 (stereo not given)	0.4	-0.3
Cc1csc2ncnc(NNC(=O)c3ccc(Cl)cc3)c12	3.22	0.02
COc1ccc(CCNC(=O)C(=O)N2CCCC2)cc1OC	2.02	-0.57
COc1ccc(CNC(=O)C(=O)c2cn(CC(=O)N3CCOCC3)c3ccccc23)cc1	0.87	-1.06

molecule	KCNQ2 pot	KCNQ2 pot baseline
Nc1nc(NC(=O)c2cccc(S(=O)(=O)N3CCCCCC3)c2)nc(-c2ccccc2)n1	1.25	0.47
COC(=O)C(NC(C)=O)(Nc1ccc(Br)cn1)C(F)(F)F (stereo not given)	0.55	-0.29
CCOC(=O)c1csc(N)n1	0.47	-0.49
Cc1ccc(C)c(N(C(=O)c2csnn2)C(C(=O)NC2CCCCC2)c2ccccn2)c1 (stereo not given)	1.13	-0.69
CCOC(=O)/C(C#N)=C/Nc1ccccc1OC	0.27	0.71
CC(=O)Nc1ccc(NC(=O)C(C)Sc2n[nH]c(=O)n2Cc2ccccc2)cc1 (stereo not given)	0.96	0.95
Cc1cccc(N2CC(C(=O)Nc3nnc(SCCN4CCOCC4)s3)CC2=O)c1 (stereo not given)	0.81	1.66
CCN(CC(=O)NCc1ccc(Cl)cc1)C(=O)c1cccc(S(=O)(=O)Nc2ccc(OC)cc2)c1	0.24	-0.28
Cc1cc(C)n2nc(-c3ccc(F)cc3)nc2n1	1.54	-0.31
O=C(O)C1Nc2ccc(C(F)(F)F)cc2C2OCCC12 (stereo not given)	0.33	0
CC1CCN(CCCNC(=O)c2cc3c(Cl)nc4ccccc4c3s2)CC1	1.23	1.59
Cc1[nH]n(-c2ccccc2)c(=O)c1N=Nc1nccs1	15.5*	-1.46*
Cc1cc(OCC(=O)N2CCC(C(=O)O)CC2)c2c(C)c(C)c(=O)oc2c1	1.42	-1.16
O=C1C2=C(SCCS2)C(=O)N1CCCO	0.06	0.73
COC(=O)CS(=O)(=O)c1ccsc1C(=O)Nc1ccc(F)c(F)c1	1	-1.45

molecule	KCNQ2 pot	KCNQ2 pot baseline
CCCOc1c(OC)cccc1C1CC(=O)Nc2cc3c(cc21)OCO3 (stereo not given)	0.75	-1.11
CCOC(=O)C1CCN(C(=O)c2cccc(S(=O)(=O)N(C)C3CCCCC3)c2)CC1	2.24	-0.75
COc1ccc(-c2nc3c(c4nnc(SC(C)C(=O)Nc5ccc(C)cc5)n24)COC(C)(C)C3)cc1 (stereo not given)	0.81	1.3
O=C(Cn1c(CO)nc2ccccc21)NCCc1ccccc1	0.24	-0.99
CCN1CNC(=S)N(C(C)c2ccccc2)C1 (stereo not given)	0.55	2.11
CCc1cccc(N(CC(=O)NC2CCCCC2)C(=O)c2csnn2)c1	0.05	-0.18
O=C(CSc1n[nH]c(=O)[nH]c1=O)N/N=C/C=C/c1ccccc1	0.12	0.43

Only part of the results is shown, so the mix of outcomes need not match the whole.
